KCNQ2 block – KCNQ2 potassium channel inhibitors, primary screen, cell-based, CHO-K1, FluxOR thallium flux, B-score (AID 2156) | 310,000 tested, 1.1% active | O88943 | 20 min; stronger effect = lower value; only compounds with negative scores are shown here; some inactives read as strong as hits | B-score at 10 µM;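 active means fluorescence ratio B-score at most minus 3 library SDs, with starting brightness B-score within 2 library SDs, cut at about -5.5 in these data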
Target sequence (O88943 whole entry, looked up): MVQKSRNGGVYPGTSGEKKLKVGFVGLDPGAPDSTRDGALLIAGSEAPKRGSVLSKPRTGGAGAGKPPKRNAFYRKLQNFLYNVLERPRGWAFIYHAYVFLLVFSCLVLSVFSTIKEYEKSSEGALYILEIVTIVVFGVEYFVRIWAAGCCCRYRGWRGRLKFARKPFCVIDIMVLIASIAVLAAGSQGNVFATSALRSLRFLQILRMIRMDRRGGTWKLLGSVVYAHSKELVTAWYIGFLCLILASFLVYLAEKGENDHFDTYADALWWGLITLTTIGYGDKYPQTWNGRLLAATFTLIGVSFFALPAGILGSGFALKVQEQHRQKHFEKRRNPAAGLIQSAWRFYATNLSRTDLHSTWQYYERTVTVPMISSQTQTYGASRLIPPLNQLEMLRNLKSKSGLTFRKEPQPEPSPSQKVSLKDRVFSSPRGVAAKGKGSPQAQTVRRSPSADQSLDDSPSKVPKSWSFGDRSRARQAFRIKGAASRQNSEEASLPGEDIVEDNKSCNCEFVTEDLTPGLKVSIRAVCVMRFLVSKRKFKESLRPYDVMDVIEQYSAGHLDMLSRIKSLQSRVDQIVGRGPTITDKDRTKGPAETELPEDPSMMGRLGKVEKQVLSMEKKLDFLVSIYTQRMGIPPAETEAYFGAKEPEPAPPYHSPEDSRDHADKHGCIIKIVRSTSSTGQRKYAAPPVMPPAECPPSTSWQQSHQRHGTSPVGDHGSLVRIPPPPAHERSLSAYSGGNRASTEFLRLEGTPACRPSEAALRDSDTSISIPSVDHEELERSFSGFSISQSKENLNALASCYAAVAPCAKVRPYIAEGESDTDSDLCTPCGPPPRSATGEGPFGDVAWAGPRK
KCNQ2 block baseline – recorded beside KCNQ2 block, whose call it bears; B-score; measured here: initial fluorescence intensity artifact check;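 brightness before thallium and not channel activity; 0 = typical well and far values either way flag optical interference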
* marks the source's active call; other numbers are inactive results; i = inactive.

cpd	KCNQ2 block	KCNQ2 block baseline	Structure
1	i	2.2	CN(C)c1cc2c(cc1NS(=O)(=O)c1ccccc1)n(C)c(=O)n2C
2	i	-0.37	Cc1ccccc1C(=O)NC1CCCCCCC1
3	i	0.67	CSCCC(NC(=O)/C(=C/c1ccc(F)cc1)NC(C)=O)C(=O)O (configuration not stated)
4	i	0.57	Cc1cccc(OCC(O)CN2CCN(CCN3C(=O)c4cccc5cccc(c45)C3=O)CC2)c1C (configuration not stated)
5	i	1.2	NNC(=O)c1cc(C23CC4CC(CC(C4)C2)C3)nc2ccccc12
6	i	3.5	Cc1nn(C)cc1C1Nc2ccccc2C(=O)N1O (configuration not stated)
7	i	-1.2	O=C(CSC1=NCCS1)Nc1ccc2ccccc2c1
8	i	0.02	COc1ccc(/C=N/NC(=O)CC2N=C(Cc3ccccc3)NNC2=O)cc1OC (configuration not stated)
9	i	-1.3	Cc1ccc(-n2c(Cc3cccn3C)nnc2SCC(=O)N2CCN(c3ccccc3)CC2)cc1
10	i	2.4	Cc1ccc(/C=N/NC(=O)c2cc3c(ccc4ccccc43)o2)cc1[N+](=O)[O-]
11	i	0.3	COc1ccc(C(CNC(=O)c2cccc(S(=O)(=O)Nc3cccc(C)c3)c2)N2CCOCC2)cc1 (configuration not stated)
12	i	-0.06	Clc1ccc(-c2nc(/C=N/N3CCOCC3)c3ccccn23)cc1
13	i	0.67	Cc1ccc(/C=C/c2ccc(=O)n(Cc3ccccc3Cl)n2)cc1
14	i	0.4	CCC(C)(C(=O)NC1CCCCC1)N(C)C(=O)c1ccc2c(c1)OCO2 (configuration not stated)
15	i	-0.24	COc1ccccc1NC(=O)C(C)n1cnc2c(oc3nc4c(cc32)CCCC4)c1=O (configuration not stated)
16	i	0.43	Cn1c(CNS(=O)(=O)c2ccc(F)cc2)n[nH]c1=S
17	i	-0.18	O=C(Nc1ncc(Cc2ccccc2)s1)C1COc2ccccc2O1 (configuration not stated)
18	i	1.1	COc1cc(NC(=O)CSc2nncn2C)c(C)cc1[N+](=O)[O-]
19	i	-1.3	O=C(/C=C/c1ccc([N+](=O)[O-])cc1)OCC(=O)N1c2ccccc2Sc2ccccc21
20	i	0.61	COC(=O)C(CC(=O)Nc1cc(C)ccc1C)Nc1ccccc1OC (configuration not stated)
21	i	3.7	COc1ccc(Cn2nnnc2C(c2ccccc2OC)N2CCC(C(N)=O)CC2)cc1 (configuration not stated)
22	i	-0.47	Cc1ccc(-n2nnnc2CNC(=O)c2ccc(Br)o2)cc1C
23	i	-0.29	Nc1ccccc1SC1CC(=O)N(c2ccc3c(c2)OCCO3)C1=O (configuration not stated)
24	i	1.1	O=C(Cc1ccc(-n2cccc2)cc1)NC1CCCCC1
25	i	0.07	O=c1nc2n(c3c1oc1ccccc13)Cc1ccccc1-2
26	i	-0.33	COc1ccccc1OCC(=O)NCc1nc(-c2ccccc2)no1
27	i	0.19	CSC1=N/C(=C\c2ccc(C)cc2)C(=O)S1
28	i	0.73	Cn1cccc1-c1cc(C(=O)N/N=C/c2cc(Br)ccc2O)[nH]n1
29	i	1.5	COc1cccc(C2c3[nH]c4ccccc4c3CCN2Cc2cccc(C)n2)c1 (configuration not stated)
30	i	-0.97	Cc1snc(SCC(=O)c2ccc(Cl)cc2)c1C#N
31	i	-0.7	COc1ccc(NC(=O)CN(C)C2CCCCC2)cc1Cl
32	i	1.5	O=C(NN1C(=O)c2ccccc2NC12CCCCC2)c1ccccc1

Shown with bars between the fields: part of the list above
nr | SMILES | KCNQ2 block | KCNQ2 block baseline
28 | Cn1cccc1-c1cc(C(=O)N/N=C/c2cc(Br)ccc2O)[nH]n1 | i | 0.73
29 | COc1cccc(C2c3[nH]c4ccccc4c3CCN2Cc2cccc(C)n2)c1 (configuration not stated) | i | 1.5
30 | Cc1snc(SCC(=O)c2ccc(Cl)cc2)c1C#N | i | -0.97
31 | COc1ccc(NC(=O)CN(C)C2CCCCC2)cc1Cl | i | -0.7
32 | O=C(NN1C(=O)c2ccccc2NC12CCCCC2)c1ccccc1 | i | 1.5

Remaining list, next part:
cpd	KCNQ2 block	KCNQ2 block baseline	Structure
33	i	-0.04	CC1CCN(C(=O)CSc2nc3ccccc3s2)CC1
34	i	1.1	Cc1cc(C)n(CC(O)COc2ccc(Cl)cc2Cl)n1 (configuration not stated)
35	i	-2.6	COc1cc(/C=N/NC(=S)NCC2CCCO2)cc(OC)c1OC (configuration not stated)
36	i	-0.24	CCOC(=O)c1sc(NC(=O)CSc2nnnn2-c2ccc(C)cc2C)nc1C
37	i	0.24	Cc1ccc2[nH]c(C)c(/C=N/Nc3nc4ccccc4s3)c2c1
38	i	0.08	Cc1ccc(NC(=O)NC(=O)CN2C(=O)NC3(CCc4ccccc43)C2=O)c(C)c1 (configuration not stated)
39	i	-0.73	Cn1c(C2=C(O)CN(c3ccc4c(c3)OCCO4)C2=N)nc2ccccc21
40	i	0.07	Cc1ccc(Cl)cc1N1CCN(Cc2nc3c(c(=O)[nH]c(=O)n3C)n2Cc2ccccc2F)CC1
41	i	-0.97	COc1cccc(/C=C2\CCCCC2=O)c1
42	i	-0.58	C=CCn1c(O)c(N=NC(=O)C(O)c2ccccc2)c2ccccc21 (configuration not stated)
43	i	1.1	Cc1nn(-c2ccccc2)c(C)c1/C=C/C(=O)OCC(=O)Nc1ncc(C(F)(F)F)cc1Cl
44	i	-0.21	CSCCC(NC(=O)OC(C)(C)C)C(=O)NC(C(=O)NC(CC(C)C)C(N)=O)C(C)C (configuration not stated)
45	i	1.1	O=C(NCCC(=O)N1CCc2ccccc21)c1ccccc1Cl
46	i	0.89	CCc1noc(C)c1C(=O)N1CCCC(C(=O)c2cc(F)ccc2OC)C1 (configuration not stated)
47	i	0.07	Cc1cc(N2C(=O)C(=O)/C(=C(/O)c3ccc(Cl)cc3)C2c2cccc(Br)c2)no1 (configuration not stated)
48	i	1.2	Cc1nc2ccccc2c2oc(C(=O)N3CCN(C4CCCCC4)CC3)cc12
49	i	-0.93	Cc1ccc(OCC(O)CN2CCN(c3ccccn3)CC2)c(C)c1 (configuration not stated)
50	i	0.08	COc1cccc2cc(C(C)N(CCCN3CCOCC3)C(=O)Nc3ccccc3)oc12 (configuration not stated)
51	i	0.18	CN(C)/C=C1\C=C(c2ccccc2)OC1=O
52	i	-0.07	COc1ccc2c(c1)CCCC21NC(=O)N(CC(=O)NC(=O)NCc2ccccc2)C1=O (configuration not stated)
53	i	-0.9	COc1ccc(CNC(=O)Cn2nnc3ccccc3c2=O)cc1
54	i	1.6	CCOc1ccccc1NC(=O)c1ccoc1C
55	i	0.79	CCCN(CCC)C(=O)c1ccc2c(=O)n(Cc3ccco3)c(=S)[nH]c2c1
56	i	-2	CSc1ccccc1NC(=O)CN(C)Cc1cccc(Cl)c1
57	i	1.1	CSc1ccccc1NC(=O)CSc1n[nH]c(N)n1
58	i	0.02	Cc1ccc(S(=O)(=O)N2CCOCC2)cc1C(=O)OCC(=O)Nc1ccc2c(c1)OCO2
59	i	2.2	Cc1cccc(OCCCCCn2ccnc2)c1
60	i	0.03	O=C(NCc1ccc(F)cc1)C1CCC(=O)N1CCc1ccccc1 (configuration not stated)
61	i	0.3	CCOC(=O)C1C(=O)NC(SC)=C(C#N)C1c1ccccc1F (configuration not stated)
62	i	1.8	CN1CCN(c2nc3ccccn3c(=O)c2C=O)CC1
63	i	-1.2	CCN=c1scc(C)n1/N=C/c1ccc(O)c(O)c1O
64	i	1.3	O=C(O)C1CCCN1C(=O)OCC1c2ccccc2-c2ccccc21 (configuration not stated)

Gathered by group: the entries above containing a nitro group on carbon (3)
cpd	KCNQ2 block	KCNQ2 block baseline	Structure
10	i	2.4	Cc1ccc(/C=N/NC(=O)c2cc3c(ccc4ccccc43)o2)cc1[N+](=O)[O-]
18	i	1.1	COc1cc(NC(=O)CSc2nncn2C)c(C)cc1[N+](=O)[O-]
19	i	-1.3	O=C(/C=C/c1ccc([N+](=O)[O-])cc1)OCC(=O)N1c2ccccc2Sc2ccccc21

The listing continues:
cpd	KCNQ2 block	KCNQ2 block baseline	Structure
65	i	-0.58	COc1cccc(Oc2nc(-c3ccccc3O)nc3ccccc23)c1
66	i	-2	CCN(CC)CCCN(Cc1cc2cc3c(cc2[nH]c1=O)OCO3)C(=S)NC
67	i	0.7	O=C(c1ccccc1)c1cc2ccccc2o1
68	i	0.01	CCc1nnc(NC(=O)CCC(=O)N2CCN(c3cccc(Cl)c3)CC2)s1
69	i	0.25	Cc1ccc(C(=O)NCCCN2CCOCC2)cc1Cl
70	i	1.1	O=C(C1CCCN(Cc2cccs2)C1)N1CCCCCC1 (configuration not stated)
71	i	2.4	O=C1Nc2ccc([N+](=O)[O-])cc2OC1CCN1CCCC1 (configuration not stated)
72	i	-0.09	CSC1=C(C#N)C(c2ccccc2Cl)C2=C(N1)c1ccccc1C2=O (configuration not stated)

Four structures out of the list, ordered by length of the SMILES, rising.
cpd	KCNQ2 block	KCNQ2 block baseline	Structure
65	i	-0.58	COc1cccc(Oc2nc(-c3ccccc3O)nc3ccccc23)c1
72	i	-0.09	CSC1=C(C#N)C(c2ccccc2Cl)C2=C(N1)c1ccccc1C2=O (configuration not stated)
68	i	0.01	CCc1nnc(NC(=O)CCC(=O)N2CCN(c3cccc(Cl)c3)CC2)s1
66	i	-2	CCN(CC)CCCN(Cc1cc2cc3c(cc2[nH]c1=O)OCO3)C(=S)NC

Carrying on.
cpd	KCNQ2 block	KCNQ2 block baseline	Structure
73	i	0.05	CN1c2ccccc2C2(C)CCCC3=Cc4cccc([N+](=O)[O-])c4OC312 (configuration not stated)
74	i	7.6	COC1=CC(=Cc2c(N)n3nc(CC(=O)N4CCCCC4)sc3nc2=O)C=C(OC)C1=O
75	-10*	0.92*	O=[N+]([O-])c1ccc(C2CCCC/C2=N/OCc2ccccc2F)c([N+](=O)[O-])c1 (configuration not stated)
76	i	-2.6	N/C(=N\c1nc2ccccc2o1)NC(=O)C(Cc1ccccc1)N1C(=O)c2ccccc2C1=O (configuration not stated)
77	i	2.7	CCOc1ccc(CCNC(=O)COC(=O)c2ccc(OC(C)C)cc2)cc1OCC
78	i	0.13	Cc1cc(C)cc(NCc2ccncc2)c1
79	i	-0.41	COC(=O)c1c(NC(=O)C2c3ccccc3Oc3ccccc32)sc(C)c1C
80	i	-0.44	CCn1c(CNc2ccccc2Cl)nnc1SCC(=O)OC1CCCCC1
81	i	1.1	Cc1ccccc1NC(=O)CN1C(=O)C2C3CC(C(Br)C3Br)C2C1=O (configuration not stated)
82	-5.9*	1.4*	COC(=O)c1ccc(C(=O)OC)c(NC(=O)COC(=O)C2CCC(C(C)(C)C)CC2)c1 (configuration not stated)
83	i	-0.56	CCOC(=O)CSC1=C(C#N)C(c2ccccc2)C(C(C)=O)=C(C)N1 (configuration not stated)
84	i	1.6	CCN(CC)P(=O)(Nc1cccc(C(F)(F)F)c1)c1ccc(N(C)C)cc1NC(=O)c1ccco1 (configuration not stated)
85	i	0.01	Clc1ccc2nc(CN3CCCCCC3)cn2c1
86	i	-0.53	CC1CN(C(=O)c2ccc(-c3cccc(C(F)(F)F)c3)o2)CC(C)O1 (configuration not stated)
87	i	-1.1	CCOc1ccc(NC(=O)CN(C)CC(=O)Nc2ccc(Br)cc2F)cc1OCC
88	i	0.95	O=C(CSc1ccccn1)N1CCN(c2cccc(Cl)c2)CC1
89	i	-2	CCOc1cc(C(=S)N2CCCC2)ccc1OCC(=O)Nc1c(C)cc(C)cc1C
90	i	-2	CCOC(=O)C1(Cc2cccc(Cl)c2)CCCN(C(=O)c2ccnn2C)C1 (configuration not stated)
91	i	1.2	Cn1c(=O)n(C)c2cc(NS(=O)(=O)c3ccc(Cl)s3)ccc21
92	i	-0.09	CCc1ccccc1NC(=O)CCCN1C(=O)C2CC=CCC2C1=O (configuration not stated)
93	i	1.4	O=C(Cn1c(C(=O)NCCCN2CCOCC2)cc2sccc21)c1ccccc1
94	i	0.12	COc1c(S(=O)(=O)N2CCN(c3ccc(F)cc3)CC2)ccc(Cl)c1Cl
95	i	0.37	CCCCn1c(SCC(N)=O)nc2ccc(N3CCOCC3)cc2c1=O
96	i	1.4	CC(C)CCn1c(S(=O)(=O)O)nc2ccccc21

Screen by screen, from the results shown:
KCNQ2 block for nos. 12–21, in order: i, i, i, i, i, i, i, i, i, i

Next compounds follow:
cpd	KCNQ2 block	KCNQ2 block baseline	Structure
97	i	-0.82	CC1(C)CC2CC(C)(CN2/C=C2/CCCCC2=O)C1 (configuration not stated)
98	i	1.1	Cc1cc2c(cc1S(=O)(=O)Nc1c(C)cccc1C)n(C)c(=O)c(=O)n2C
99	i	0.88	CC(=O)N1C(=O)C(=C2C=C(C)OC(C)=C2)c2ccccc21
100	i	-0.44	CCN1CCC2(CC1)C(C#N)=C(N)Oc1c2sc2nc(C)cc(C)c12
101	i	2.5	CCCc1[nH]nc2c1C(/C(C)=C/c1ccccc1)C(C#N)=C(N)O2 (configuration not stated)
102	i	0.26	Cc1cccc(NC(=O)NCCc2c[nH]c3ccccc23)c1
103	i	1.7	CCCCN(C(=O)c1[nH]c(C)c(C(=O)OCC)c1C)c1c(N)n(CCCC)c(=O)[nH]c1=O
104	i	1	COc1ccc(C(O)C(CC(=O)NCCCOC(C)C)C(=O)NCCCOC(C)C)cc1OC (configuration not stated)
105	i	-1.3	Cc1ccc(CN2C(=NC(=O)CCC(=O)O)SC3CS(=O)(=O)CC32)cc1 (configuration not stated)
106	i	0.42	CCC(Sc1nccn1C)C(=O)Nc1cccc2ccccc12 (configuration not stated)
107	i	-1.8	Cc1cc(Nc2ccc(C(C)C)cc2)n2ncnc2n1
108	-6.1*	0.12*	COc1cc(/C=C(/C(=O)c2cccs2)c2nc3ccccc3[nH]2)cc(OC)c1O
109	-9.5*	-1.2*	CC1CN(S(=O)(=O)c2cccc(C(=O)Nc3ccccc3N3CCCCC3)c2)CC(C)O1 (configuration not stated)
110	i	-0.14	COC(=O)c1ccc(NC(=O)CSc2ccccn2)cc1
111	i	-0.02	Cn1nc(C(F)(F)F)c(C(=O)Nc2ccc(F)cc2F)c1Sc1cccc(Cl)c1
112	i	-1.2	S=C(NCCCCc1ccccc1)NCc1ccccc1
113	i	-0.7	CCOc1ccc(NC(=S)N2CCN(S(=O)(=O)c3ccc(C)cc3)CC2)cc1

Bioassay records (PubChem BioAssay)

These rows are one share of the data (hit frequency here may not be typical).
